Bioassay records deposited in PubChem by National Center for Advancing Translational Sciences (NCATS).
NS1 inh – qHTS Assay for Inhibitors of Influenza NS1 Protein Function; S. cerevisiae slowed by influenza A NS1, growth recovery by OD600; AID 2326, 2010; Potency, µM (series often up to 46.1 µM), without a hit: top-dose activity, positive = more growth; 270,000 tested, 0.4% active; note: actives are rising curves; nearly all actives have a fitted effect of over 50% in size
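Compounds were scored for reversing the slow growth caused by influenza A NS1 in S. cerevisiae, measured by optical density at 600 nm. Assay medium contained 2% galactose at pH 6.0; NS1-free yeast of the same strain were the positive control.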
Cruzain Triton – qHTS Assay for Promiscuous and Specific Inhibitors of Cruzain (with detergent). Potency, µM, for inactives: max response, negative = inhibition, most hits filed as inhibitors. 200,000 tested, 0.43% active. purified cruzain, Z-FR-AMC fluorescence, 0.01% Triton; active = well fitted curve in the direction sought with a large enough effect; inconclusive = small, poorly fitted or top-dose-only effect, or another doubt; inactive = no such curve, though single readings can be large; an effect the other way counts as inactive or inconclusive;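 note: plate controls were neutral wells for no effect and buffer without enzyme for full effect; nearly all actives have a fitted effect of over 40% in size; top concentration of the series not given in the record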
Target sequence (P25779 123-467 limits assumed): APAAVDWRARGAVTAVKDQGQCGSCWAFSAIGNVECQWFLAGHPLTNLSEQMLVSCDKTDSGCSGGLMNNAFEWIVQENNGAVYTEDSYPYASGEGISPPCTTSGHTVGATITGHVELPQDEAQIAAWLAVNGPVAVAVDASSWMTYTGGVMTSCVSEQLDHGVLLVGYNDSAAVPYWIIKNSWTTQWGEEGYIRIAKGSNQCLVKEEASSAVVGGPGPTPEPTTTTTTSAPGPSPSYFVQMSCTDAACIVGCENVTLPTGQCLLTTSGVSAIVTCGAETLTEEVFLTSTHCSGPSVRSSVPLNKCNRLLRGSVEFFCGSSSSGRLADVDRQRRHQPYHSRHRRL
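Detergent-containing run (0.01% Triton X-100) in acetate buffer pH 5.5 with 5 mM DTT: enzyme at 1.5 nM final, 15 min compound preincubation at room temperature, then 2 uM Z-FR-AMC substrate. Activity taken as 60 s fluorescence increase at 360/450 nm.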
Cruzain inh noDet – qHTS Assay for Promiscuous and Specific Inhibitors of Cruzain (without detergent). Cruzipain (Trypanosoma cruzi), P25779. purified cruzain, Z-FR-AMC fluorescence, no detergent. Potency, µM, without a hit: max response, negative = inhibition, hits mostly inhibitors. 200,000 tested, 2.3% active. AID 1476, 2009; active = well fitted curve in the direction sought with a large enough effect; inconclusive = small, poorly fitted or top-dose-only effect, or another doubt; inactive = no such curve, though single readings can be large; an effect the other way counts as inactive or inconclusive;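 note: plate controls were enzyme without inhibitor for no effect and buffer without enzyme for full effect; nearly all actives have a fitted effect of over 40% in size; top concentration of the series not given in the record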
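Purified cruzain at 1.5 nM, pre-incubated 15 min with compound at room temperature in 100 mM sodium acetate pH 5.5, 5 mM DTT, 0.00005% Triton X-100. Reaction started with 2 uM Z-FR-AMC; AMC fluorescence increase over 60 s gives rate.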
StopGo reporter – High Throughput Screening for Foot and Mouth Disease Virus Antivirals; Potency, µM (top dose mostly 57.9 µM), inactives show at the top dose signal change, negative = less light; human cells with a luciferase reporter of 2A StopGo recoding; control for the full effect not named in the record; 410,000 tested, 1.2% active; AID 1159524, 2015; active = well fitted falling curve with a large enough effect; inconclusive = small, poorly fitted or top-dose-only effect; inactive = no such curve, though single readings can be large or run the other way; tested in HEK293T cells; note: % is set by controls: 0 for no effect and ±100 for the full control effect; nearly all actives have a fitted effect of over 45% in size; luciferase light after 4 h
SARS PLP yeast – qHTS of Yeast-based Assay for SARS-CoV PLP | 330,000 tested, 0.19% active | Potency, µM (titrated, usually from 32.9 µM), without a hit: at the highest dose activity, positive = growth rescue | S. cerevisiae expressing SARS-CoV PLpro, growth rescue; control for the full effect not named in the record; note: 0% is about no effect; nearly all actives have a fitted effect of over 55% in size; growth read by luminescence after 48 h
RE007 growth inh – qHTS Assay for Inhibitors of the HIV-1 protein Vpr; 360,000 tested, 0.21% active; S. pombe RE007 Vpr strain, BacTiter-Glo ATP luminescence, 24 h; control for the full effect not named in the record; Potency, µM (top dose mostly 92.2 µM), without a hit: top-dose activity change, negative = less growth; active = well fitted falling curve with a large enough effect; inconclusive = small, poorly fitted or top-dose-only effect; inactive = no such curve, though single readings can be large or run the other way;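 note: % is set by controls: 0 for no effect and ±100 for the full control effect; nearly all actives have a fitted effect of over 50% in size; the assay follows cell death caused by Vpr and the record does not say whether a fall means rescue or toxicity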
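Fission yeast RE007 carrying one integrated HIV-1 vpr copy, seeded at OD 0.01 in PMG+AL medium with 23 nL pinned compound. Grown 24 h at 30 degrees; viability read by BacTiter-Glo luminescence after 5 min.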
Marburg entry inh – qHTS for inhibitors of binding or entry into cells for Marburg Virus. Marburg virus pseudotyped entry inhibition, cell reporter; control for the full effect not named in the record; about a third of the inactives were read at about 46 µM. Potency, µM (highest dose often 37.8 µM), inactives show at the highest dose activity change, negative = inhibition, most hits filed as inhibitors. 300,000 tested, 1.8% active; active = well fitted inhibition curve with a large enough effect; inconclusive = small, poorly fitted or top-dose-only effect, or effect the other way; inactive = flat fitted curve, though single readings scatter; tested in HEK293 cells; about a fifth of its hits are not listed in these tables; note: % is set by controls: 0 for no effect and ±100 for the full control effect; luciferase read-out
LASV entry inh – qHTS for Inhibitors of binding or entry into cells for Lassa Virus. Lassa virus pseudotype entry inhibition, cell reporter; control for the full effect not named in the record. 300,000 tested, 1.2% active. Potency, µM (highest dose often 37.9 µM), for inactives: top-dose activity change, negative = inhibition, actives largely listed as inhibitors; active means well fitted inhibition curve with a large enough effect; inconclusive means small, poorly fitted or top-dose-only effect, or effect the other way; inactive means flat fitted curve, though single readings scatter; tested in HEK293 cells; note: % is set by controls: 0 for no effect and ±100 for the full control effect; nearly all actives have a fitted effect of over 50% in size; luciferase read-out
Numbers without * were called inactive; ? = inconclusive; . = not tested or not shown; & = joins results of further samples; [ ] = remark or other dose. Unless noted, calls come from the whole dose curve; as a rule, active means well fitted rising curve with a large enough effect; inconclusive means small, poorly fitted or top-dose-only effect; inactive means no such curve, though single readings can be large or run the other way. Potency is the fitted concentration of half-maximal effect.

Molecule,Cruzain inh noDet,LASV entry inh,Cruzain Triton,Marburg entry inh,StopGo reporter,NS1 inh,RE007 growth inh,SARS PLP yeast
COc1ccc(NC(=S)N2CCN(c3ncccn3)CC2)cc1,.,2%[46.1 µM],.,4%[46.1 µM],15%,.,10%,0%
O=C(COC(=O)c1ccc[n+]([O-])c1)Nc1ccc(Cl)cc1[N+](=O)[O-],.,4%,.,-3%,0%,.,6%,0%
N#CCC(=O)Nc1ccc(C(=O)Nc2cccnc2)cc1,.,.,.,.,-12%,-2%,4%,-2%
Oc1ccc2oc3c(c2c1/C=N/n1cnnc1)CCCC3,1%,-11%,-5.1%,-23%,6%,-2%,1%,7%
Cc1nn2c(=O)c(NC(=O)c3ccc(Cl)cc3)cnc2s1,.,13%[46.1 µM],.,?,8%,.,0%,1%
Cc1c(NC(=O)C(C)Sc2ccc3ccccc3n2)c(=O)n(-c2ccccc2)n1C (configuration not stated),1%,2%,-2.2%,?,-11%,-3%,10%,-2%
Cc1cccc(NC(=O)CN(C)C(C)C(=O)Nc2ccc(S(=O)(=O)N3CCCC3)cc2)c1C (configuration not stated),.,7%,.,?,-18%,.,10%,-4%
CN(Cc1cn(Cc2ccccc2)nc1-c1ccc2c(c1)OCO2)Cc1nccn1C,.,14%[46.1 µM],.,?,-2%,-1%,-8%,-1%
Cc1nn(C)c(C)c1CN(C)C(=O)C1c2ccccc2Oc2ccccc21,15%,-14%,-2.6%,5%,-22%,7%,11%,10%
Cc1cc(C)n(-c2nc3c(c(=O)n(C)c(=O)n3C)n2CCO)n1,.,0%,.,-13%,1%,.,-17%,3%
COc1cc(C(=O)N2CCN(c3ccccc3OC)CC2)c([N+](=O)[O-])cc1OC,.,.,.,?,-4%,3%,3%,1%
CCOC(=O)CNC(=O)c1cn(CC(C)C)c(=O)c2cc(OC)c(OC)cc12,13%,19%,-1.0%,11%,7%,6%,6%,-9%
c1cncc(-c2nc3ccccc3o2)c1,5%,-1%,1.8%,-1%,0%,-6%,-10%,-2%
Cc1ccc(CNC(=O)c2cc(=O)c3cc(C)ccc3o2)cc1,-14%,?,-7.5%,8%,-3%&0%,3%,15%,3%
COc1ccc(C(=O)CCc2ccccc2)cc1,.,.,.,.,52%[activator],-11%,-5%,2%
COc1ccc(-n2c(CN3CCN(c4ccccn4)CC3)nc3ccc([N+](=O)[O-])cc3c2=O)c(OC)c1,.,.,.,.,-26%,14%,-5%,-4%
N#Cc1c(N)nc(SCC(=O)C23CC4CC(CC(C4)C2)C3)c(C#N)c1-c1ccc(Cl)cc1,4µM*,-24%,2.8%,-5%[46.1 µM],-6%,22%,-23%,2%
COc1ccc(C2CC(=O)C(C=NCCO)=C(O)C2)cc1OC (configuration not stated),-10%,1%,3.1%,14%,11%,12%,0%,3%
c1ccc2c(c1)c1c3n2CCNC3CCC1 (configuration not stated),-6%,4%,5.1%,?,-3%,-2%,-9%,1%
C(=N\c1nccs1)/c1cccnc1,3%,-2%,-5.7%,7%,-14%,0%,4%,9%
COc1cccc(CCC(=O)N2CCC(n3nccc3NC(=O)C3CCOC3)CC2)c1 (configuration not stated),.,-19%,.,?,-5%,11%,-7%,1%
Cc1ccc(S(=O)(=O)NC(=O)c2cccc(C)c2)cc1,.,.,.,.,45%[activator],0%,34%,5%
Cc1cc(C)cc(NC(=O)Cn2nnc(C(=O)Nc3cc(C)cc(C)c3)c2N)c1,?,-17%[46.1 µM],-4.9%,-30%[46.1 µM],-11%,.,.,.
CCOc1ccc(-c2nonc2NC(=O)c2oc3c(C)c(C)ccc3c2C)cc1OCC,?,2%[46.1 µM],-2.3%,-12%[46.1 µM],-15%,.,.,.
Cn1cc([N+](=O)[O-])c(C(=O)NCc2cc3ccccc3[nH]2)n1,1%,1%,-0.3%,?,-14%,26%,9%,9%
Cc1ccc(NS(=O)(=O)c2ccc(C(=O)N3CCCN(C)CC3)cc2)cc1,4%,-6%,3.3%,-2%&-2%,7%,-1%,9%,8%
Cc1ccc(OCCC(=O)OCC(=O)NC(=O)NC2CCCCC2)cc1,.,-10%,.,-9%,-15%,.,1%,-3%
CCC(=O)N1c2ccccc2CC1C(=O)N1CCN(c2cccc(Cl)c2)CC1 (configuration not stated),-9%,22%[46.1 µM],0.7%,.,-22%,.,.,.
COc1ccc(C(=O)N/C(=C/c2cccs2)C(=O)NCCCn2ccnc2)cc1OC,8%,?,-0.4%,-5%,-3%,5%,2%,1%
N#CC(C#N)=C1C=CC=CN1/C(=C\c1ccco1)C(=O)c1ccc(-c2ccccc2)cc1,?,?,-5.6%,16µM*,14µM*,9%,-1%,-22%
NC(=O)NC(=O)CSc1nc2cc([N+](=O)[O-])ccc2n1-c1cccc(C(F)(F)F)c1,.,.,.,.,-26%,?,4%,-1%
COc1ccc(/C=C\C(=O)Oc2cccc(/C=N/NC(=O)Cc3ccc(OC)c(OC)c3)c2)cc1,11%,22%,-10%,?,14%,3%,?,-11%
Cc1ccc2c(c1C)C(=O)C(=O)N2,.,-1%,.,9%,-13%,.,3%,.
COc1ccc(NC(=O)c2cccc([N+](=O)[O-])c2)cc1,.,?,.,1%[46.1 µM],27%,.,-11%,1%
CSc1nc(-c2ccccc2)nc(N)c1C(C)=O,-9%,.,-8.7%,-3%,.,-7%,.,12%
CCC1=C2CC[C@H]3C(=O)N(C)C(=O)[C@H]3[C@H]2[C@@]2(Cc3ccccc3)C(=NCC(=O)OC)OC(=O)N2C1=O,1%,.,1.6%,.,-14%,-1%,-9%,-1%
CC(=O)N(CCC(c1ccco1)C(C)C)Cc1ccc(OC(C)C)cc1 (configuration not stated),.,.,.,.,-16%,6%,4%,1%
CC1(C)CNc2cc([N+](=O)[O-])ccc2S1,.,10%,.,24%[46.1 µM],10%,-6%,-17%,-2%
O=C(NCCNC(=O)c1cc(F)cc(F)c1)c1cc(F)cc(F)c1,.,10%[46.1 µM],.,-4%[46.1 µM],-13%,-2%,14%,-2%
Cc1noc(/C=C/c2ccco2)c1S(=O)(=O)N1CCC(C(=O)Nc2ccc(F)cc2F)CC1,-17%,-3%[46.1 µM],-11%,?,?,.,.,.
COCCN(C(=O)COC(=O)c1ccccc1NCc1ccco1)c1c(N)n(Cc2ccccc2)c(=O)[nH]c1=O,.,?,.,-6%,-9%,.,2%,-1%
Cc1ccc(NC(=O)CSc2nnc(-c3cccnc3)s2)cc1,-3%,7%,9.5%,10%,-5%,8%,21%,-3%
CC(=O)c1c(C)[nH]c(C(=O)CSc2nnc(-c3ccco3)o2)c1C,.,?,.,11µM*,?,.,3%,1%
COCCCNC(=S)NNC(=S)Nc1cccc(Cl)c1,.,.,.,.,29%,-37%,2%,-4%
COc1ccc(Oc2nc3c(c(=O)n(C)c(=O)n3C)n2Cc2cccc(OC)c2)cc1,14%,?,-0.7%,-4%,?,2%,-18%,-4%
COc1ccc2c(C)cc(Sc3nnnn3-c3ccccc3)nc2c1,4%,0.79µM*,-6.3%,14%&14%,0%,-9%,8%,14%
CCc1ccc(C(=O)NC2=NC(c3cc(OC)ccc3OC)CC(=O)N2)cc1 (configuration not stated),-9%,-13%[46.1 µM],-2.6%,21%[46.1 µM],-10%,.,.,.
CC(Oc1ccccc1Cl)C(=O)N(Cc1ccco1)C1CCS(=O)(=O)C1 (configuration not stated),9%,-3%,6.1%,0%,.,-4%,7%,1%
COc1ccc(OC)c(/C=C/C(=O)OCC(=O)N2CCCCC2)c1,.,0%[46.1 µM],.,-12%[46.1 µM],16%,.,-12%,7%
O=C(Nc1cccc(Cl)c1)OCCN1CCN(Cc2ccccc2)CCC1=O,3%&8%,?,2.2%&-1.0%,-25%,-25%,-59%,-3%,-13%

Other entries
Molecule,Cruzain inh noDet,LASV entry inh,Cruzain Triton,Marburg entry inh,StopGo reporter,NS1 inh,RE007 growth inh,SARS PLP yeast
Cc1nn(C)c(C(=O)N/N=C/c2cc3c(cc2Br)OCO3)c1Br,4%,4%,0.1%,?,-5%,11%,-1%,-9%
COC(=O)c1sccc1NC(=O)CC1C(=O)NCCN1C(=O)c1ccc(F)cc1 (configuration not stated),.,.,.,.,-1%,1%,4%,1%
COc1ccc(NC(=O)CN2CCC(NC(=O)C3CCCCC3)CC2)cc1,0%,1%,0.8%,?,7%,-10%,15%,10%
Cc1ccc(CNC(=O)c2c(-c3cccc(Br)c3)noc2C)o1,-3%,10%[46.1 µM],-3.2%,.,-29%,.,.,.
Cc1cccc(N(Cc2ccccc2)C(=O)c2ccccc2F)c1,.,-15%[46.1 µM],.,?,31%[activator],-21%,-2%,-13%
C=CCNC(=O)c1ccccc1NC(=O)c1ccccc1N(C)S(C)(=O)=O,.,0%[46.1 µM],.,-2%[46.1 µM],-2%,0%,-12%,0%
COc1ccc(C(=O)COC(=O)c2cc(=O)[nH]c3ccccc23)c(OC)c1,.,-18%,.,?,24%,.,7%,4%
Cc1ccc(C2N(c3cc(C)on3)C(=O)C3CCCN32)cc1 (configuration not stated),-3%,1%,6.2%,-25%,7%,1%,-17%,2%
CC1CCN(C(=O)COC(=O)Cc2c[nH]c3ccccc23)CC1,.,4%,.,9%,15%,-4%,-14%,5%
COc1ccccc1NS(=O)(=O)c1ccc(C(=O)NCC(c2ccccc2OC)N(C)C)cc1 (configuration not stated),.,3%,.,-5%,-6%,30%,1%,2%
